UCH37 DUB inh – inhibitors of human UCH37 deubiquitinase, primary screen, biochemical, Ub-AMC cleavage, fluorescence; Ubiquitin carboxyl-terminal hydrolase isozyme L5 (Homo sapiens), Q9Y5K5; purified proteasome/UCH37; inhibition, % (concentration not given with the values); actives 0.33% (n = 330,000);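 active = mean of two replicates above 20%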;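 note: 0% = compound-free wells with enzyme and 100% = wells lacking proteasome; stock transfer was 100 nL into about 20 µL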
Target sequence (Q9Y5K5 whole entry, looked up): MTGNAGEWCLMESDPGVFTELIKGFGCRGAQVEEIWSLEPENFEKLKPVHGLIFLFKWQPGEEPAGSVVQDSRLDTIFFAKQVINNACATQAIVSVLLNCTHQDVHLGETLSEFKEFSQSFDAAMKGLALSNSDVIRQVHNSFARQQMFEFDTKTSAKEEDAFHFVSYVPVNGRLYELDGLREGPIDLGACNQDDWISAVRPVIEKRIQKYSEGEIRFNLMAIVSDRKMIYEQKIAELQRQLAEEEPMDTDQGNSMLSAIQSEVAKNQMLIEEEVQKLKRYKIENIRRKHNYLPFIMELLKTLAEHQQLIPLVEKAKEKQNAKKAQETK
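System: Proteasome-associated human UCH37 deubiquitinase; Input: 0.15 nM proteasome in added enzyme buffer; Also added: Ub-AMC substrate from 1 µM stock; Incubation: 30 min compound-proteasome preincubation then 25 min substrate reaction, room temperature; Detection: fluorescence, ex 355 nm, em 460 nm; Read-out: % inhibition of Ub-AMC cleavage fluorescence; Benchmarks: no-proteasome and no-compound wells.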
RanGTP-Impb inh – inhibitors of RanGTP-importin-beta interaction, primary screen, biochemical, FRET, CFP-Ran, YFP-importin-beta, homogeneous | Ran GTPase (GTP-bound) - importin-beta complex | actives 1.1% (n = 300,000) | cell-free CFP-Ran/YFP-importin-beta FRET ratio | inhibition, % (no concentration beside the values);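 active = most replicates above 15%; inconclusive = exactly half above 15%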;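 note: 0% = DMSO wells and 100% = Ran loaded with GDP instead of GTP; wells of about 40 µL received 100 nL stock; the first replicate is given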
Bfl-1 A1 inh – caspase 3/7 activation in MEF A1-2A-BIM cells, primary screen, A1 inhibitor project, cell-based, luminescence, HTS. AID 2462, 2010. actives 0.066% (n = 330,000). caspase activation, % (test concentration not listed). Caspase-Glo 3/7 luminescence, 3 h; percent of clofoctol response, vehicle zero;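 active = over half of replicate activation scores above 10%, or exactly half above 10 with the replicate mean above 10; inconclusive = replicate mean below 10 yet half the replicates above 10; inactive = over half of replicates below 10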;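 note: wells of about 30 µL received 50 nL stock; many hits fall short of the cut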
Beta2AR agonist – beta2AR agonists driving receptor internalization, primary screen, cell-based, FAP fluorogen, flow cytometry | Beta-2 adrenergic receptor (Homo sapiens), P07550 | Am2.2-beta2AR cells; reference of the scale not given here | response, % (test concentration not listed) | actives 0.43% (n = 340,000);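 active = response above a set limit, near 3 SD of response in nonfluorescent compounds, cut at about 42% in these data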;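 note: stock transfer was 100 nL into about 11 µL; a reference agonist was the positive control; negative values mostly stem from fluorescent compounds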
Target sequence (P07550 whole entry, looked up): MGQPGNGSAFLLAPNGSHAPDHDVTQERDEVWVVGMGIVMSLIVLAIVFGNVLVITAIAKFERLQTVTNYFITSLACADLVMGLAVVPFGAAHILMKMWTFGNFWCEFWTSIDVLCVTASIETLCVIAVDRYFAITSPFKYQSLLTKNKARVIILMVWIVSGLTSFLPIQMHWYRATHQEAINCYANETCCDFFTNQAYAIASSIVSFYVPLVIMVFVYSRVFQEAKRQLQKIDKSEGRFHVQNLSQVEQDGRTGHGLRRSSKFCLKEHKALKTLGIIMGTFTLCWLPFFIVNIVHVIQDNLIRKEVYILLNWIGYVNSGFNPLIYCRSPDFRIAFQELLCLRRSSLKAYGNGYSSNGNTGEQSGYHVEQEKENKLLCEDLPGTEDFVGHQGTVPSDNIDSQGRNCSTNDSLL
Calb FLC – C. albicans growth inhibition with fluconazole, primary screen, CaCi-2 strain, Alamar Blue fluorescence; growth inhibition, % (test concentration not listed); AID 1979, 2009; actives 0.57% (n = 300,000); C. albicans CaCi-2 (fluconazole-resistant clinical isolate) + fluconazole, 48 h;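 active = most replicates above 75%; inconclusive = exactly half above 75%; inactive = most below 75%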;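 note: all wells also contain fluconazole at 8 µg/ml as a sub-toxic cotreatment; 0% = median of DMSO wells and 100% = median of geldanamycin control wells; wells of about 8 µL received 7.5 nL stock; the first replicate is given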
LANA-H2B inh – blockers of LANA interaction with H2A/H2B – biochemical, FP readout, HTS, primary screen; Protein LANA1 (Human herpesvirus 8 type P (isolate GK18)), Q9QR71; cell-free LANA-H2A/H2B peptide, fluorescence polarization; inhibition, % (test concentration not listed); actives 0.6% (n = 320,000); AID 2629, 2010; in the data active = inhibition mostly above about 10%, no sharp cut-off; inactive = mostly below about 6.7%;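 note: stock transfer was 7.5 nL into about 10 µL; 0% = median of vehicle wells and 100% = median of positive control wells; one replicate is shown; the record names a cut of 25% in any replicate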
T cruzi inh – inhibitors of intracellular T. cruzi growth, primary screen, luminescence, NIH3T3 host cells | inhibition, % (concentration not given with the values) | T. cruzi beta-gal in NIH3T3, 90 h | actives 1.4% (n = 300,000);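 active = mean inhibition across valid replicates above about 55%, limit read from the data; inconclusive = mean below that limit but half or more replicates reach it; inactive = mean below it, under half of replicates reach it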;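 note: signal also drops with host cell toxicity which is not excluded here; 0% = plate median of DMSO wells and 100% = zero luminescence signal; higher percent means less beta-gal luminescence so fewer parasites; stock transfer was 50 nL into about 50 µL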
Beta apoptosis – inhibitors of cytokine-induced beta cell apoptosis, primary screen, luminescence | actives 0.8% (n = 300,000) | INS-1E cytokine-induced death, ATP luminescence, 48 h; percent of positive-control rescue, neutral wells zero | protection from apoptosis, % (test concentration not listed);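 active = all replicates at 75% or more, or half of them and the mean; inconclusive = half reach 75% but not the mean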;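 note: 0% = cytokine-treated negative control wells and 100% = positive control rescue; higher means more ATP so stronger rescue from cytokine killing; wells of about 40 µL received 100 nL stock; the first replicate is given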
* marks the source's active call; other numbers are inactive results; ? = inconclusive; / = no result given. Hits appear at their usual frequency. About 4.3% of those tested had a hit in this group.

SMILES	UCH37 DUB inh	RanGTP-Impb inh	Bfl-1 A1 inh	Beta2AR agonist	Calb FLC	LANA-H2B inh	T cruzi inh	Beta apoptosis
CC(C)C(C)NC(=O)COn1nnc2ccc(S(=O)(=O)N3CCOCC3)cc21 (stereo not given)	2.6	/	0.0	20	/	/	/	-2
COc1ccc(/C(C)=N/N=C(N)N)c(O)c1	/	1.5	0.6	4	14	-2.7	11	-4
CCN(c1ccccc1)S(=O)(=O)c1cccc(C(=O)NCc2ccncc2)c1	6.7	3.8	0.5	2	8	-7.9	-7	-2
O=C(NCc1cccnc1)c1ccc(Cl)cc1[N+](=O)[O-]	1.5	3.7	0.3	2	-5	-2.2	5	-16
CCCCn1c(N)c(N(CC(C)C)C(=O)CSc2ccc([N+](=O)[O-])cc2)c(=O)[nH]c1=O	4.1	1.3	0.6	7	0	3.0	6	/
Cc1ccc(Sc2nc(C)c([N+](=O)[O-])c(C)c2C#N)cc1	0.0	4.1	0.7	11	-5	11	-6	/
CCOc1ccc(NC(=O)CN(C)C(=O)c2ccncc2)cc1OCC	-0.8	-1.7	0.9	3	-1	-2.1	-3	-1
C=CC(C)(O)CCCC(C)CCCC(C)CCCC(C)C (stereo not given)	2.0	/	0.5	-6	/	0.1	/	3
NC(=O)c1ccsc1NC(=O)C1CCCCC1	7.4	-3.2	-0.4	-12	-5	-2.1	2	-16
C=C1SC(=Nc2ccccc2Cl)N(C(=O)c2sc3ccccc3c2Cl)C12CCCCC2	/	3.5	1.0	/	-20	1.0	46	/
O=C(NC1CCCCC1)Oc1cc2oc(=O)sc2cc1Br	2.8	2.7	-0.9	1	9	-6.3	-15	5
CCCOc1ccccc1OCC(=O)N1CCN(S(=O)(=O)c2ccc(Cl)cc2)CC1	3.3	/	-0.6	-1	/	0.0	/	-2
Cc1ccc(NC(=O)c2cccc(NC(=O)CC3SC(N4CCCCC4)=NC3=O)c2)nc1 (stereo not given)	2.0	-0.1	-3.5	-10	-5	-1.4	2	4
O=C(CSc1ncnc2ccccc12)NCC(=O)c1ccccc1	1.2	-1.8	-0.5	-16	9	0.1	4	-6
CCOc1ccc(S(=O)(=O)Nc2nc3ccccc3nc2Cl)cc1	-0.2	-0.4	-0.9	-5	23	3.3	-4	-2
CCc1noc(C)c1C(=O)NNC(=O)c1ccccc1	-1.2	/	1.3	4	/	97*	/	0
COC(=O)CCC(=O)Nc1ccc(Br)cc1	5.4	7.2	0.6	-1	-15	1.1	-23	2
O=C(Nc1ccccc1)c1ccc2nsnc2c1	2.7	-3.4	-3.8	9	-2	0.8	-10	3
O=C(Nc1ccccc1C(=O)N1CCN(c2cccc(Cl)c2)CC1)C1=CSCCO1	4.0	4.9	-0.5	1	-13	-0.9	7	-6
CC(C)(C)[C@H]1C=C(C(=O)N2CCOCC2)O[C@@H](OCCCCO)C1	0.4	1.7	0.0	0	-8	-1.2	2	-7
O=C(NC(=S)NC1CCN(Cc2ccccc2)CC1)c1ccc(F)cc1	2.3	12	-0.1	-8	11	-9.8	3	1
Cc1cc(C)n(-c2ccc(S(=O)(=O)N3CCOCC3)cc2[N+](=O)[O-])n1	1.1	-0.6	0.7	-7	-7	-2.3	-10	-5
CCCCC(CC)COC(=O)c1ccc(N(C)C)cc1 (stereo not given)	2.3	/	0.6	1	/	-47	/	-1
Cc1ccc(NC(=O)CN(C)C(=O)c2cccc(S(=O)(=O)NCc3ccco3)c2)cc1	-0.5	/	-1.2	-4	/	-1.6	/	-1
Cc1ccc(NC(=O)c2nc[nH]c2C(=O)Nc2ccc(C)cc2)cc1	-7.3	-0.1	-0.6	-13	-1	1.6	13	3
COc1nccnc1NS(=O)(=O)c1ccc(NCc2cc(Br)ccc2O)cc1	5.6	-1.5	-0.4	-2	9	-0.6	6	-4
CCCOc1ccc(C(=O)c2ccccc2C(=O)O)cc1OCCC	0.0	4.4	-0.1	20	-6	-0.8	-1	3
CN1C(=O)OC(C)(CCc2ccccc2)C1(C)O (stereo not given)	0.6	-0.6	-0.5	-2	3	-8.0	-9	1
CCn1c(SCC(=O)NCc2ccco2)nnc1C(C)C	2.2	3.0	0.6	1	-1	2.7	1	6
COc1ccc(NC(=O)CN(C)C(C)C(=O)N2CCCCC2)cc1 (stereo not given)	2.8	-1.8	-0.7	5	-30	5.7	-6	0
COc1ccc(/C=C/C(=O)NCCCn2ccnc2)cc1	-1.6	?	-0.6	0	9	-0.9	-22	8
COc1cc(NC(=O)c2ccccc2Cl)ccc1NC(=O)c1ccco1	3.0	5.4	-0.4	-6	2	-5.2	-10	1
CCn1c(SCC(=O)NCc2ccco2)nc2ccccc2c1=O	1.6	?	0.7	3	-5	2.6	-4	-3
CCS(=O)(=O)c1ccc(O)c(NC(=O)COc2ccc(Cl)cc2)c1	1.8	2.6	-0.1	-3	-9	-2.4	-13	6
CC1Cc2nc(SCC(=O)NCc3ccccc3)n(Cc3ccccc3)c(=O)c2S1 (stereo not given)	0.4	4.8	0.1	-10	-1	4.3	27	7
O=C(CC1SC(=O)NC1=O)Oc1ccc(/C=N/NC(=O)c2ccccc2O)cc1 (stereo not given)	/	-3.7	-3.1	15	15	1.1	-1	-2
Cc1ccccc1NC(=O)COC(=O)C1C2CC3OC(=O)C1C3C2 (stereo not given)	5.3	1.0	0.9	-2	8	-3.2	-1	0
COC(=O)c1ccc(NC(=O)Cc2ccc(C)cc2)cc1	4.6	1.1	-0.4	3	3	-0.8	-3	-7
COc1ccc(NC(=O)c2cc(C)on2)cc1OC	4.8	3.5	0.0	3	?	-3.5	-26	-3
Cc1cc(C(=O)COC(=O)c2ccc(F)cc2)c(C)n1C	1.8	/	-8.0	3	/	2.6	/	-3
CC1CN(C(=O)COC(=O)Cc2ccc(Cl)cc2)CC(C)O1 (stereo not given)	5.0	/	0.6	-2	/	-3.4	/	-8
Cc1nn2c(CN(C(=O)CN3CCOCC3)c3ccccc3)nnc2c2ccccc12	-0.9	6.2	0.0	-23	7	-2.1	-21	1
COc1ccc(NC(=O)C2CC(c3ccccc3O)=NO2)cc1OC (stereo not given)	-0.8	-3.7	0.2	-6	7	2.0	-6	2
Cc1ccc(S(=O)(=O)c2c(C)cc(C)nc2N2CCCCC2)cc1	0.3	-0.1	/	35	-4	/	-8	/
CSc1nc(-c2ccccc2)c(C#N)c(=O)[nH]1	3.5	4.4	-0.2	1	-8	-11	-1	-12
Cc1ccc(/C=N/N2CCOCC2)s1	/	5.8	0.6	-3	0	-1.6	-3	-2
Cc1ccc(N2C(=O)CC(Nc3ccccc3)C2=O)cc1 (stereo not given)	2.5	-0.2	0.9	0	9	-0.1	-8	-4
CCOc1cc(C(=O)OCC(=O)Nc2ncc(Cl)c(C)c2Cl)ccc1OCC(=O)N1CCOCC1	-6.5	-5.1	-0.1	-8	-10	-1.1	-5	-5
CCCCNC(=O)c1onc(CSc2ccccc2)c1C(=O)O	3.2	?	0.3	-2	-3	1.1	12	-5
CC1Cc2nc(SCC(=O)NC3CCCCC3)n(C)c(=O)c2S1 (stereo not given)	0.6	-0.8	0.6	-2	-10	-0.3	-6	1
COc1cccc2cc(C(=O)NCCC3=CCCCC3)c(=O)oc12	-0.6	-3.7	-0.4	-3	-3	-6.8	-26	-6
COC(=O)C(C)Sc1ncnc2c1nnn2-c1ccc(F)cc1 (stereo not given)	-1.0	3.2	0.2	0	3	4.3	-23	-6
COc1cccc(Cn2cnc3c(N)c(C)c(C)cc32)c1	1.8	-2.0	0.6	-4	?	5.5	-4	-6
CCn1c(=O)cc(SCC(=O)Nc2cccc(C)n2)c2ccccc21	1.5	-1.4	-0.4	-7	-9	-3.4	3	-16
CCN(C(=O)c1ccc(S(=O)(=O)N2CCC(C)CC2)cc1)C1CCS(=O)(=O)C1 (stereo not given)	3.2	-1.1	-0.1	2	3	-1.2	-1	0
O=C(NC1CCCC1)c1ccc(CS(=O)(=O)c2cccc(C(F)(F)F)c2)o1	5.8	-3.4	-0.1	2	22	-4.2	4	-7
Cc1ccc(C(=O)NC(C)(COc2nonc2C)COc2nonc2C)cc1	0.1	?	0.6	1	15	5.6	0	-10
CCCCOCCCNC(=S)Nc1ccc(S(=O)(=O)N2CCOCC2)cc1	2.9	-6.1	0.5	0	-5	6.9	6	3
O=C(CCC(=O)N1CCOc2ccc(Cl)cc21)NCCCN1CCN(Cc2ccccc2)CC1	3.6	1.4	-0.7	-13	3	5.7	-11	-3
O=C(CNS(=O)(=O)c1ccc2ccccc2c1)OCC(=O)c1ccc(Br)s1	2.9	-0.8	0.3	1	-4	-4.4	-19	/

The results go on.
SMILES	UCH37 DUB inh	RanGTP-Impb inh	Bfl-1 A1 inh	Beta2AR agonist	Calb FLC	LANA-H2B inh	T cruzi inh	Beta apoptosis
CCOc1ccc(NC(c2ccccn2)c2oc(CO)cc(=O)c2O)cc1 (stereo not given)	5.8	8.4	-1.2	2	-27	0.3	16	-5
Cc1cccc(N2CCN(C(=O)c3ccccc3NC(=O)C3CC=CCC3C(=O)O)CC2)c1 (stereo not given)	1.0	1.3	0.2	1	-35	1.5	-5	3
CCCN1CCC(NC(=S)Nc2cccc(Cl)c2Cl)CC1	0.4	4.5	0.3	1	-7	3.4	25	2
C/C(=N\Nc1nc(-c2cc(C)ccc2C)cs1)c1cc2ccccc2oc1=O	/	2.9	0.2	-3	-2	1.4	31	12
Cc1nc2nc(SCC(=O)NCCCN3CCCC3)nn2c(C)c1Cc1ccccc1Cl	2.3	-2.2	-0.4	-7	-4	4.6	15	1
Cc1ccc(NC(=O)c2nc[nH]c2C(=O)N(C)Cc2ccccc2)cc1	-5.4	/	-0.3	12	/	-4.5	/	2
CCc1nn(C(C)C(=O)NCc2cccc(OC)c2)c(=O)c2cc3occc3n12 (stereo not given)	2.1	1.7	2.1	-4	-13	-6.7	5	-2
O=C(Cn1cnc(S(=O)(=O)N2CCCCC2)c1)Nc1ccc(OC(F)(F)F)cc1	1.7	1.2	0.1	-5	5	-0.2	-2	-13
CC(C)(C)OC(=O)N1CCC[C@H]1c1nnc(SCc2c(Cl)cccc2Cl)o1	3.9	3.4	0.6	3	-13	-3.8	2	1
Cc1nnc(SCC(=O)NCc2ccc(Cl)cc2)[nH]c1=O	6.0	-3.1	-0.4	5	-1	-2.5	-14	-8
OC(COc1ccc(Br)cc1)CN1CCN(c2ccccc2)CC1 (stereo not given)	4.6	0.9	0.2	-3	-3	-1.3	-9	/

Bioassay records (PubChem)
